Screens deposited in PubChem by National Center for Advancing Translational Sciences (NCATS).
VDR inhibitor = inhibitors of human vitamin D receptor | P11473 | actives 0.93% (n = 400,000) | Potency, µM, inactives show max response, negative = inhibition, hits mostly inhibitors | VDR-SRC2-3 peptide fluorescence polarization, 2 h | AID 504847; active = well fitted inhibition curve with a large enough effect; inconclusive = small, poorly fitted or top-dose-only effect, or another doubt; inactive = no such curve, though single readings can be large or run the other way; note: series mostly up to about 120 µM
Target sequence (P11473 whole entry, looked up): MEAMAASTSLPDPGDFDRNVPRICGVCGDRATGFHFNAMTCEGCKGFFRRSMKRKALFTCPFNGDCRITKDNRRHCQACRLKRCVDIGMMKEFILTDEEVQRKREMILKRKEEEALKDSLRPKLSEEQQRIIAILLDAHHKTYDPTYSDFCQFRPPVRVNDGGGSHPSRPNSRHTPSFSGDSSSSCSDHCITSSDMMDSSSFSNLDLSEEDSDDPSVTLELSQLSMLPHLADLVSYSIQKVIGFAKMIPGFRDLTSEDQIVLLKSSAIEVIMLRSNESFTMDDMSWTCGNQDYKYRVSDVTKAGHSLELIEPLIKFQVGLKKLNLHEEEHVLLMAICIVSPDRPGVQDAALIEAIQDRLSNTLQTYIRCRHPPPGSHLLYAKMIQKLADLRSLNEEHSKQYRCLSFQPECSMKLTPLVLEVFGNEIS
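Reagent solutions, kept cold and dark, are dispensed first; compounds are then pinned in at 23 nl, plates briefly spun, and incubated 2 h at ambient temperature. Inhibition of VDR–SRC2-3 peptide binding is read by fluorescence polarization.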
Numbers without * were called inactive; u = inconclusive; & = joins results of further samples. % is set by controls: 0 for no effect and ±100 for the full control effect; potency is the fitted concentration of half-maximal effect. The list is partial, so the mix of outcomes need not match the whole.

SMILES | VDR inhibitor
COc1cc([C@H]2c3c(cc(OC)c(O)c3OC)C[C@@H](CO)[C@@H]2CO[C@@H]2O[C@H](CO)[C@@H](O)[C@H](O)[C@H]2O)cc(OC)c1O | -2%
Cc1ccc(N=C2NC(=O)C(CC(=O)NCc3ccccc3)S2)cc1C (stereo not drawn) | -22%
O=C(NCc1ccccn1)C1(C(F)(F)F)C/C(=C\CCO)CCCO1 (stereo not drawn) | -5%&-4%
Cc1cc(NC(=O)CS(=O)CC(=O)Nc2c(C)cccc2C)ccc1-n1cnnn1 (stereo not drawn) | 6%
COc1ccc(-c2nnn(CC(=O)N(CCCO)C(C(=O)NC3CCCC3)c3ccc(F)cc3)n2)cc1 (stereo not drawn) | -3%
NC(=O)CCC(NS(=O)(=O)c1ccc(Cl)cc1)C(=O)NCc1ccc(Cl)cc1 (stereo not drawn) | -1%
NC(=S)NNc1cccc(Cl)c1 | u
O=C(NCCN1C(=O)C2C3C=CC(C3)C2C1=O)NCc1ccccc1 (stereo not drawn) | 89µM*
Cc1cccc(CCNC(=O)c2cccc(N3CCCC3=O)c2)c1 | -15%
CCOC(=O)C(C)N1CC(=O)N(c2ccccc2)C1=O (stereo not drawn) | -12%

Overlap with the part before: two compounds, followed by the next part.
SMILES | VDR inhibitor
Cc1cccc(CCNC(=O)c2cccc(N3CCCC3=O)c2)c1 | -15%
CCOC(=O)C(C)N1CC(=O)N(c2ccccc2)C1=O (stereo not drawn) | -12%
CCc1ccc(C(=O)NNC(=O)Cn2c(=O)cnc3ccccc32)cc1 | 18%
CCOC(=O)C1(Cc2ccccc2)CCN(Cc2ccc3cc(NC(C)=O)ccc3n2)CC1 | 3%
CCOC(=O)Cc1csc(NC(=S)NC(=O)c2ccc(F)cc2)n1 | -10%
CC(=O)c1ccc(NC(=O)c2ccc(-c3nc(CSc4ccc(C)cc4)c(C)o3)cc2)cc1 | -2%
CCC(C)Sc1c(C(C)C)cnc2c1c(=O)n(C)c(=O)n2C (stereo not drawn) | 5%
Cc1ccc2[nH]c(=O)c(-c3nc4c(C)cccn4c3NCc3ccco3)cc2c1 | -3%
C/C(=N/Nc1ccccc1[N+](=O)[O-])c1ccc(C)c([N+](=O)[O-])c1 | 10%
O=C(CCC1CCCN(C2C3CC4CC(C3)CC2C4)C1)NCc1ccc(F)c(F)c1 (stereo not drawn) | 19%
CN1C(=O)NC(c2ccccc2[N+](=O)[O-])C2=C1CC(C)(C)CC2=O (stereo not drawn) | 11%
CCN(CC)CCN(C(=O)Cn1nnc(-c2ccc(OC)c(OC)c2)n1)C(C(=O)NC1CCCC1)c1ccc(F)cc1 (stereo not drawn) | -2%
CCS(=O)(=O)NC(C)C(c1cccs1)N1CCN(c2ccc(OC)cc2)CC1 (stereo not drawn) | -11%
O=C(CCl)NCCCN(C(=O)C(Cl)Cl)c1ccc([N+](=O)[O-])cc1 | -9%
O=C(NCCN1CCN(c2ccccc2)CC1)c1ccc(NC(=O)C2CCCO2)cc1 (stereo not drawn) | 4%
CC1CCN(S(=O)(=O)c2ccc(NC(=O)CCN3C(=O)C4CC=CCC4C3=O)cc2)CC1 (stereo not drawn) | 8%
COc1cc(CC(=O)Nc2cccc(S(=O)(=O)N(C)c3ccccc3)c2)cc(OC)c1OC | -1%
O=C(O)CCC(=O)Nc1ccc(Cc2ccc(NC(=O)CCC(=O)O)c(O)c2)cc1O | 2%
O=C(CN1C(=O)COc2ccccc21)NCCCN1CCc2ccccc2C1 | -3%
COc1ccccc1-c1nc(C#N)c(NCCCn2ccnc2)o1 | 12%
CC(=O)NC(CC(=O)Nc1nc(-c2ccccc2)c(C(C)=O)s1)c1ccccc1 (stereo not drawn) | 3%
CCCn1c(SCC(=O)C(C)(C)C)nc2ccccc21 | -4%
CCOc1ccccc1NC(=O)CN1CCC(NC(=O)Nc2ccccc2)CC1 | -4%
Cc1nnc2n(-c3ccccc3)c(=O)c3c4c(sc3n12)COC(C(C)C)C4 (stereo not drawn) | 5%
O=C(Nc1ccc2c(c1)OCO2)c1cccc(S(=O)(=O)N2CCOCC2)c1 | -10%
CC1CCCN(c2cc(N(C)CCO)c([N+](=O)[O-])c3nonc23)C1 (stereo not drawn) | -12%
C/C(=N\Nc1nc(C)cc(-c2ccccc2)n1)c1ccc(F)cc1 | 5%
O=C(c1ccc(N2CCN(C(=O)c3ccc(F)c(F)c3)CC2)cc1)c1cccc(F)c1 | -2%
Cc1ccc(OCC(=O)c2cc(C)n(CC(F)(F)F)c2C)c([N+](=O)[O-])n1 | -8%
Cc1ccccc1-c1cc(N(C)Cc2ccco2)ncn1 | 45µM*
CC(C)(C)OC(=O)C[C@H]1C/C=C\C[C@@H](CC(=O)N(CCO)Cc2ccccc2)C(=O)N[C@@H](c2ccccc2)COC1=O | -10%
CCc1cccc2c(C(=O)Cn3nnc(-c4ccc(OC)c(OC)c4)n3)c[nH]c12 | 6%
CCN1CCN(C(c2ccccc2)c2c(O)cc(C)n(Cc3ccco3)c2=O)CC1 (stereo not drawn) | -3%
Cn1c(=O)c2c(ncn2Cc2cc(-c3ccccc3)no2)n(C)c1=O | 17%
O=C(C1CCCN1S(=O)(=O)c1ccc(Cl)cc1)N1CCN(c2ccccc2)CC1 (stereo not drawn) | 4%
CN(Cc1ccccc1)C(=O)c1[nH]cnc1C(=O)Nc1ccc(Cl)cc1 | -22%
COC(=O)c1cc2c(s1)CS(=O)C2 (stereo not drawn) | -22%
Cc1ccc(NC(=O)c2ccccc2NC(=O)c2cccnc2)cc1 | -15%
COc1cc(Nc2nc(SCc3ccc(Cl)cc3)nc3ccccc23)cc(OC)c1 | 0%
O=C(Cn1nc(N2CCN(c3ccccc3)CC2)ccc1=O)NCc1ccccc1F | 12%
O=C(NCCC1=CCCCC1)C1CC(=O)N(C2CCCCC2)C1 (stereo not drawn) | 25%
CCOC(=O)Cn1nc(C)c(NC(=O)c2ccc([N+](=O)[O-])c(C)c2)c1C | 13%
COc1cc(Oc2nc(C(F)(F)F)nc3ccccc23)ccc1C=O | -15%
COc1ccc(CCNC(=O)C2CCCN(C(=O)N(C)C)C2)c(OC)c1 (stereo not drawn) | 2%
COc1ccc(-c2nnc(SC(C)C(=O)O)o2)cc1 (stereo not drawn) | 9%
Cc1cc(C(=O)N2CCC(Cc3ccccc3)CC2)c(C)o1 | -1%
CCN(CC)C(=O)CSc1nnc(-n2nc(C)cc2C)c2ccccc12 | -3%
CCC1CCCCN1CCCNC(=O)c1c(C)oc2ncn(CC(C)C)c(=O)c12 (stereo not drawn) | -6%
Cc1cc(S(=O)(=O)Nc2nc(CN3CCOCC3)nc3sc4c(c23)CCCC4)ccc1F | 4%
COc1ccc(NC(=O)CCS(=O)(=O)c2ccc3c(c2)CCCN3C(C)=O)cc1Cl | 10%
O=C(Nc1cccc2ncccc12)c1ccccc1F | 3%
Cc1ccc(CN2CC(C(=O)Nc3ccc4c(C)cc(=O)oc4c3)CC2=O)cc1 (stereo not drawn) | 10%

New compounds follow
SMILES | VDR inhibitor
CC(=O)NCc1cc(-c2nn(C)c(=O)c3ccccc23)ccc1C | -6%
O=C(c1cc(F)c(F)cc1Cl)N1CCCc2ccccc21 | 7%
CCS(=O)(=O)c1ccc(O)c(NC(=O)c2cc(-c3ccccn3)nc3ccccc23)c1 | -4%
CC(=O)c1ccc(N2CCN(C(=O)CCCCn3c(=O)[nH]c4ccccc4c3=O)CC2)cc1 | 8%
COc1cc(NC(=O)CCC(=O)N2CCN(S(=O)(=O)c3ccc(C)cc3)CC2)cc(OC)c1 | -6%
CCc1cc(C(=O)N2CCN(c3ncc(C(F)(F)F)cc3Cl)CC2)sc1C | -14%
O=C(NCC(c1cccs1)N1CCOCC1)c1cccnc1 (stereo not drawn) | 10%
O=C(O)C1CCCN1c1nc(C(F)(F)F)nc2ccccc12 (stereo not drawn) | 0%
CNC(=S)N/N=C/c1ccc(-c2cccc(C(=O)O)c2)o1 | 1%
CCOc1cc(N2CCOCC2)c(OCC)cc1NC(=O)C1CC(=O)N(c2ccc(C)cc2)C1 (stereo not drawn) | -24%

The final 2 records of the part above lead into the next:
SMILES | VDR inhibitor
CNC(=S)N/N=C/c1ccc(-c2cccc(C(=O)O)c2)o1 | 1%
CCOc1cc(N2CCOCC2)c(OCC)cc1NC(=O)C1CC(=O)N(c2ccc(C)cc2)C1 (stereo not drawn) | -24%
Cc1ccc2occ(CC(=O)Nc3c(C(=O)Nc4ccc(Cl)cc4)oc4ccccc34)c2c1 | -5%
Cc1ccc(-n2nnnc2SCC(=O)Nc2ccccc2-c2ccccc2)cc1C | -10%
c1cn2c(Nc3ccc4c(c3)OCCO4)c(-c3ccc(N4CCOCC4)cc3)nc2cn1 | -21%
Cc1ccc(N(Cc2ccc(C(=O)Nc3ccccc3C(=O)NCc3ccco3)cc2)S(C)(=O)=O)cc1C | -9%
Cc1nnc(SCc2cc(=O)[nH]c(/N=C(\N)Nc3ccccc3)n2)s1 | -7%
O=C(CSc1nc2[nH]ncc2c(=O)n1-c1ccccc1)NCc1cccs1 | -6%
O=C(Nc1ccc(F)cc1)NC1CCN(Cc2c(F)cccc2Cl)CC1 | 20%
Cc1cc(NC(=O)C2C3C(=O)N(c4cccnc4)C(C(=O)NC(C)(C)C)C34C=CC2(C)O4)no1 (stereo not drawn) | -3%
Cc1cc(C)c(C#N)c(SCSCc2ccccc2)n1 | -6%
CCN(CC)CCN(Cc1cc2cc3c(cc2[nH]c1=O)OCCO3)C(=S)NCCCOC | -2%

An excerpt of these results, with the structure last.
VDR inhibitor,SMILES
-21%,c1cn2c(Nc3ccc4c(c3)OCCO4)c(-c3ccc(N4CCOCC4)cc3)nc2cn1
-9%,Cc1ccc(N(Cc2ccc(C(=O)Nc3ccccc3C(=O)NCc3ccco3)cc2)S(C)(=O)=O)cc1C
-7%,Cc1nnc(SCc2cc(=O)[nH]c(/N=C(\N)Nc3ccccc3)n2)s1

Next compounds:
SMILES | VDR inhibitor
CN1C(=O)c2cccc(NCCCN3C(=O)c4ccccc4C3=O)c2C1=O | 1%
COC(=O)c1ccc(-n2nnnc2SCc2ccccc2OC)cc1 | -13%
Cc1ccc2cc3cc(C(=O)N4CCCCC4C)oc3nc2c1 (stereo not drawn) | -5%
Cc1ccccc1Nc1nc(N)nc(COC(=O)c2ccc(S(=O)(=O)N(C)C)cc2)n1 | 5%
CC(C)n1c(=O)[nH]c2cc(C(=O)Nc3ccccc3)ccc21 | 3%
Oc1ccc(-c2n[nH]c(=S)n2Cc2ccco2)cc1 | 11%
CC(C)OCCCNc1sc(S(=O)(=O)c2ccccc2)nc1S(=O)(=O)c1ccc(Cl)cc1 | 1%
Cc1sc2ncnc(N3CCC(C(=O)Nc4cc(Cl)ccc4Cl)CC3)c2c1C | -4%
O=C(Cc1ccc(Cl)cc1)Nc1ccc2nn(-c3ccccc3)nc2c1 | 3%
O=c1oc2ccccc2c(NCc2cccc(F)c2)c1[N+](=O)[O-] | -10%
Cc1sc(N)nc1-c1ccc(Oc2ccccc2)cc1 | -7%
Cc1noc(C)c1S(=O)(=O)N(CC(=O)Nc1ccc2c(c1)OCCO2)c1ccc(C(C)C)cc1 | -9%
C[C@@H]1NC(=O)[C@@]2(C)[C@@H](c3ccccc3)[C@H]3COc4ccccc4[C@@H]3N2C1=O | -8%
CCCC(=O)Nc1ccc(C(=O)NNC(=O)c2cccs2)cc1 | -12%
Cc1cc(C)n(C(=O)c2ccc(C)c(S(=O)(=O)N3CCOCC3)c2)n1 | 5%
O=C(O)CN1C(=O)COc2ccc(S(=O)(=O)N3CCCCCC3)cc21 | 3%
Cc1nc(C)c(C(=O)Nc2ccccc2)s1 | -12%
CCOC(=O)c1ccc(NC(=O)Cc2ccc(-n3c(CC)nc4cccnc43)cc2)cc1 | 8%
COc1ccc(NC(=O)CN(C)C(=O)c2n[nH]c3ccccc23)cc1 | -1%
CCOC(=O)c1c(C)[nH]c(C(=O)COC(=O)c2ccc(O)cc2)c1C | -10%
O=c1cc(CN2CCOCC2)c2ccc(O)c(O)c2o1 | -17%
CCOc1ncccc1C(=O)Nc1ccc(C)c(S(=O)(=O)N2CCCCCC2)c1 | -13%
Cc1ccccc1-n1nc2c(c1NC(=O)CC(C)C)CS(=O)C2 (stereo not drawn) | 5%
CC(CCc1ccccc1)NC(=O)COC(=O)c1ccc(F)cc1 (stereo not drawn) | 22%
CCC(CO)NCc1ccc(OCC(=O)Nc2cccc(C(F)(F)F)c2)c(OC)c1 (stereo not drawn) | -3%
COc1cccc(C(=O)CN2CCN(S(=O)(=O)c3cccc([N+](=O)[O-])c3)CC2)c1 | -18%
COC(=O)C1NN=C(C(=O)c2ccccc2)C1c1ccccc1 (stereo not drawn) | -17%
Cc1ccc(C)c(-c2nnc(NC(=O)Cc3ccccc3)o2)c1 | -1%
O=C(CCSc1nccn1Cc1ccccc1)N1CCOCC1 | -18%
Cc1cc2cccc(C)c2nc1SCC(=O)N(C)c1nc(-c2ccccc2)cs1 | 16%
CCN(CCn1cccn1)C(=O)CCc1nnc(-c2ccc3c(c2)OCO3)o1 | -7%
CCOC(=O)N1CCN(C(=O)c2ccc3c(=O)n(Cc4ccc(OC)cc4)c(=S)[nH]c3c2)CC1 | -1%
Cc1ccccc1NC(=O)N(CCc1nc2ccccc2[nH]1)Cc1ccccc1 | -10%
CCOc1ccc(NC(=O)CCNS(=O)(=O)c2ccc3c(c2)CC(C)N3C(C)=O)cc1 (stereo not drawn) | u
CN(Cc1nc2ccc(Cl)cc2[nH]1)Cc1nc(-c2cnccn2)no1 | -1%

Another view of part of the listing above.
molecule	VDR inhibitor
CN1C(=O)NC(c2ccccc2[N+](=O)[O-])C2=C1CC(C)(C)CC2=O (stereo not drawn)	11%
CCN(CC)CCN(C(=O)Cn1nnc(-c2ccc(OC)c(OC)c2)n1)C(C(=O)NC1CCCC1)c1ccc(F)cc1 (stereo not drawn)	-2%
CCS(=O)(=O)NC(C)C(c1cccs1)N1CCN(c2ccc(OC)cc2)CC1 (stereo not drawn)	-11%
O=C(CCl)NCCCN(C(=O)C(Cl)Cl)c1ccc([N+](=O)[O-])cc1	-9%
